TRPML1 blocker: human mucolipin-1 channel inhibition. AID 624415. 390,000 tested, 0.02% active. activity change, negative = inhibition, % (test concentration not listed). TRPML1-inducible cells, Ca2+ dye fluorescence, FDSS; stronger effect = lower value; inhibition of EC80 agonist-evoked calcium signal. Q9GZU1; in the data active means activity change below about -50%; inconclusive means about -30% to -50%; inactive means above about -30%;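 note: stimulus is agonist 54-4 at its EC80 concentration; % is set by controls: 0 for no effect and ±100 for the full control effect; compound concentration not given in the record; the text of the record puts the active cut at -80%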
Target sequence (Q9GZU1 whole entry, looked up): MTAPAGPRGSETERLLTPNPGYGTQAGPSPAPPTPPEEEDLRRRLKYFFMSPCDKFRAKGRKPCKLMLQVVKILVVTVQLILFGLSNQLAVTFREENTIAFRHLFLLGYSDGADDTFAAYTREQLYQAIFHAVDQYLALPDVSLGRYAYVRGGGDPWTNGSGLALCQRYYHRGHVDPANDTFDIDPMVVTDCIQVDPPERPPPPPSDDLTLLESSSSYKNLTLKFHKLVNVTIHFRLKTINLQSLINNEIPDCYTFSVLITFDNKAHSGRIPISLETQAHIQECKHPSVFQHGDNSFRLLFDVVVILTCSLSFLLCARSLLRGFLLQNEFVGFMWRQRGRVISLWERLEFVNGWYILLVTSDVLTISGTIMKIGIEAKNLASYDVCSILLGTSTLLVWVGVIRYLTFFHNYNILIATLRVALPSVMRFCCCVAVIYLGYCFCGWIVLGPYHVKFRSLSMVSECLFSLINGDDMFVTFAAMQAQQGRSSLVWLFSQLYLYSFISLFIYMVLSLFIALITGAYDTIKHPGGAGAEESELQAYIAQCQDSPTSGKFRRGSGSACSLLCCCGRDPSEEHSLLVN
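Tet-induced TRPML1-DL cells loaded with Ca8 no-wash calcium dye were read kinetically on FDSS. Compound addition was followed by EC80 agonist 54-4 (4 uM final); inhibition was read over 110 s.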
TRPML1 agonist: activates the human TRPML1 channel; Q9GZU1; TRPML1-expressing cells, Ca2+ dye fluorescence, FDSS; host cell line not named in the record; reference of the full effect not given here; activation, % (test concentration not listed); 410,000 tested, 0.12% active; AID 624414; in the data active = activation above about 50%; inconclusive = about 30% to 50%; inactive = below about 30%; note: 0% is about no effect; the text of the record puts the active cut at 80%
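Tet-induced TRPML1-DL cells, 1,500 per well, cultured overnight, were loaded with a no-wash Ca2+ dye for 45–90 min. Calcium fluorescence was recorded on the FDSS for 110 s after compound addition, before the EC80 agonist (4 uM 54-4) was added.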
Six1-Eya2 inh: inhibitors of human Six1/Eya2 interaction; AID 651725; AlphaScreen GST-Six1/His-Eya2 binding, biochemical; stronger effect = lower value; control for the full effect not named in the record; activity change, % (test concentration not listed); Q15475+O00167; 360,000 tested, 0.56% active; in the data active = activity change below about -65%; inconclusive = about -30% to -65%; inactive = above about -30%; note: % is set by controls: 0 for no effect and ±100 for the full control effect; compound concentration not given in the record
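Six1/Eya2 binding was read as AlphaScreen signal after compounds were pinned into GST-Six1 plus His-tagged Eya2 (5X stock 250/500 nM) in pH 8.0 Tris/NaCl/TCEP buffer, beads added, then incubated 1 h, 37 C, dark.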
PINK1 modulator: PINK1 expression modulation; PINK1 immunofluorescence, high-content cytometry, 24 h; AID 624263; Potency, µM (series often up to 76.6 µM), inactives show top-dose activation (PINK1 increase), most hits filed as activators; 410,000 tested, 0.2% active; active = well fitted activation curve with a large enough effect; inconclusive = small, poorly fitted or top-dose-only effect; inactive = flat fitted curve, though single readings scatter; cell line not stated here;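 note: potency is the fitted concentration of half-maximal effect; % of control where 0% means no effect; nearly all actives have a fitted effect of over 65% in size; a mitochondrial uncoupler was the plate control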
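Stable cell line treated 24 h with compounds at 5 concentrations (CCCP controls), then fixed and immunostained for PINK1 plus nuclear and cell stains; PINK1 immunofluorescence quantified by laser-scanning microplate cytometry.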
CtBP-E1A blk: CtBP/E1A binding inhibition | AlphaScreen GST-E1A/His-CtBP binding, 1536-well; stronger effect = lower value; control for the full effect not named in the record | activity change, % (concentration not given with the values) | AID 651724 | 340,000 tested, 0.49% active; in the data active means activity change below about -65%; inconclusive means about -30% to -65%; inactive means above about -30%; note: % is set by controls: 0 for no effect and ±100 for the full control effect
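Steps: dispense buffer (Tris pH 8.0, NaCl 300 mM, TCEP 1 mM, BSA, Tween 20); add 5X protein mix (GST-E1A, His-CtBP, 125 nM each); pin 23 nL compound; 2 h at 37 °C, dark; add 5X beads (50 ug/mL); 1 h; read.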
D2 ag: agonists of human D2 dopamine receptor (beta-arrestin); activation, % (test concentration not listed); 360,000 tested, 0.084% active; AID 624465; DiscoveRx PathHunter D2 beta-arrestin, luminescence, 90 min; 100% = 57 uM dopamine signal; in the data active = activation above about 40%; inconclusive = about 15% to 40%; inactive = below about 15%; note: compound concentration not given in the record; the text of the record calls up to 30% inactive
Target sequence (P14416 whole entry, looked up): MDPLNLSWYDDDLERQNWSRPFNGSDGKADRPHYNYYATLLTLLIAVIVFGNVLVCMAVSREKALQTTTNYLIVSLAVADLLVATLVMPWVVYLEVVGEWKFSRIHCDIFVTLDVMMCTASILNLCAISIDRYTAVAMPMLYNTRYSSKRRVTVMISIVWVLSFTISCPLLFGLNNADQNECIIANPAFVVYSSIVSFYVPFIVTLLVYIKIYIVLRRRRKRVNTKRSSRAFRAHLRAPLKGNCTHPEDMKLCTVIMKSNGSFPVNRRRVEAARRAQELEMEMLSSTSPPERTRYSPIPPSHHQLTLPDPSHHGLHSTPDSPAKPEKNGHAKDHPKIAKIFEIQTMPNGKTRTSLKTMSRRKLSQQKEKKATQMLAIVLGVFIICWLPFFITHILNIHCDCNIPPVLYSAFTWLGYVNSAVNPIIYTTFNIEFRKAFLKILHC
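Agonist mode: compounds alone added to overnight-plated D2 PathHunter cells for 90 min at 37 C, with 57 uM final dopamine (EC100) defining full response. Beta-arrestin recruitment detected by chemiluminescent reagent, read after 1 h at ambient temperature.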
* = called active by the depositor; ? = inconclusive; / = no result given; & = joins results of further samples; [ ] = remark or other dose.

SMILES | TRPML1 blocker | TRPML1 agonist | Six1-Eya2 inh | PINK1 modulator | CtBP-E1A blk | D2 ag
COc1ccccc1N1CCN(C(=O)c2cc(-c3ccc(F)cc3)on2)CC1 | 16&28 | -0.5&0.2 | 22 | 1.1%&0.9% | 2 | -1.5
Cc1ccc2c(c1)N(CC(=O)NC1CCCCC1C)C(=O)CO2 (centres undefined) | 12 | 0.0 | 1 | / | 1 | -1.6
Cc1ccc(-n2nc(C(=O)NCCc3cccc(C)c3)c3c4ccccc4n(C)c3c2=O)cc1 | 29 | -0.4 | / | 0.1% | / | /
O=C(Nc1cccc(S(=O)(=O)NC2=NCCC2)c1)c1ccc(F)cc1 | -5 | -0.8 | -7 | 0.1% | / | -3.6
CC(NC(=O)CCc1cn(Cc2ccccc2Cl)c2ccccc12)c1ccccc1 (centres undefined) | -2 | 2.5 | / | 4.5% | / | /
CCCCC1=CC2=C(c3ccco3)C(=O)C(C)(OC(=O)c3ccc(OC)cc3)C(=O)C2=CN1Cc1ccccc1 (centres undefined) | -4 | 2.8 | 1 | 3.4% | 0 | 3.3
O=C(CN1c2cccc3cccc(c23)S1(=O)=O)Nc1ccc(F)c(F)c1F | 6 | -1.0 | -6 | 11% | 8 | 2.1
CC1=CC2=NC(=O)C(c3ccccc3)C(=O)N2C=C1 (centres undefined) | -11 | -0.4 | 4 | -1.0% | 9 | 0.3
O=C(C1CCN(C2CCN(Cc3ccc4c(c3)CCO4)CC2)CC1)N1CCOCC1 | -16 | -0.2 | 3 | 0.1% | 0 | -4.0
Cc1cc(=O)[nH]c(SCc2cc(=O)n3nc(C)sc3n2)n1 | 4 | -0.4 | 7 | 1.6% | -1 | -6.0
Cn1c(=O)c(C(=O)c2ccccc2)c(O)c2ccccc21 | 3 | 1.8 | 5 | 1.6% | 14 | 5.0
CC1=C(C(=O)Nc2ccccc2C(=O)NCCCOC(C)C)SCCO1 | -6 | -1.0 | 2 | 0.3% | -20 | 3.8
Cc1cc(C)c(C(=O)CN2C(=O)NC3(CCCCCC3)C2=O)cc1C | -8 | 0.6 | 8 | 1.4% | -2 | -6.6
COC(=O)c1ccc(C2C(Oc3ccccc3C)C(=O)N2CCc2ccc(OC)c(OC)c2)cc1 (centres undefined) | 29 | -0.5 | -10 | 0.2% | 0 | -1.7
COc1cc(NC(=O)CCn2c(=O)[nH]c3ccsc3c2=O)cc(OC)c1 | -5 | -0.3 | 0 | 1.5%[38.3 µM] | 1 | -1.7
CCOc1ccc2nc(NC(=O)c3nc(SCc4ccccc4C)ncc3Cl)sc2c1 | -5 | 0.3 | / | 1.0% | / | /
COc1ccc(NC(=O)CSc2nnnn2C2CC3C=CC2C3)cc1 (centres undefined) | 11 | -0.6 | 4 | -1.0% | 4 | -4.4
CS(=O)(=O)c1ccc(C(=O)NCC2(N3CCOCC3)CCCCC2)cc1 | -6 | -0.9 | 1 | 1.0% | 1 | 4.9
Cc1ccc(S(=O)(=O)c2nc(Nc3ccccc3N3CCOCC3)sc2Cl)cc1 | 13 | 1.8 | -2 | 1.9%[38.3 µM] | -13 | 1.8
COc1ccc(C(CCN(Cc2ccc(OC)c(OC)c2)C(=O)CCl)c2ccccc2)cc1 (centres undefined) | -4 | 1.6 | -6 | -1.0% | 1 | -4.2
CN1CCN(C(=O)CN(Cc2ccccc2)S(C)(=O)=O)CC1 | 5 | -0.3 | 2 | -3.9%[38.3 µM] | -2 | 0.5
Cc1cc(S(=O)(=O)Nc2cc3c(cc2N2CCOCC2)n(C)c(=O)c(=O)n3C)ccc1F | -27 | 0.1 | / | -0.4% | / | /
CSCC(C)N1CCC(N2CCC(C(=O)NCc3ccccn3)CC2)CC1 (centres undefined) | 41 | 0.8 | 8 | -0.7% | 4 | 9.7
Cn1c(/C(C#N)=C/C2CC=CCC2)nc2ccccc21 (centres undefined) | -7 | -0.2 | 2 | 1.2%[38.3 µM] | 5 | -0.9
CC(=O)Nc1ccc(C(=O)/C=C/c2ccc[nH]2)cc1 | -12 | 0.8 | 0 | -1.0% | 3 | -3.3
COc1ccc(NC(=O)c2sc3nc(C)c(C(=O)Nc4ccc(C)cc4C)c(-c4ccc(C)o4)c3c2N)cc1 | 15 | 1.5 | / | -0.5% | / | /
COCCCNC(=O)/C=C/c1ccc(Cl)cc1 | 28 | 0.3 | 4 | / | 1 | -1.7
Cc1c(Cl)c([N+](=O)[O-])nn1CC(=O)NC12CC3CC(CC(C3)C1)C2 | 6 | -0.4 | 0 | 0.0% | 7 | -1.4
CCC(=O)Nc1cc(Cl)ccc1C(=O)O | -4 | 0.1 | -3 | -0.4% | 4 | -1.2
Cc1nn(Cc2ccccc2)c(Cl)c1C(=O)OCc1nnc(-c2ccccc2)o1 | -3 | 0.1 | 2 | 2.0% | 9 | -3.1
CCCCn1c(SCc2nc(N)nc(N3CCCCC3)n2)nc2c1c(=O)n(C)c(=O)n2C | -10 | -0.4 | -2 | -0.1% | 7 | -4.9
Cc1cc(C)c2c(N)c(C(=O)c3ccccc3)sc2n1 | -8 | 2.1 | 0 | 5.1% | 0 | 5.9
O=C(Nc1ccc(S(=O)(=O)Nc2nccs2)cc1)c1c(F)c(F)c(F)c(F)c1F | 33 | 0.3 | -7 | -2.9% | 10 | 0.5
Nc1nnc(N2CCc3ccccc32)s1 | -9 | 1.4 | -14 | -3.8% | 1 | -2.0
Cc1ccc(C)c(NC(=O)c2cccc(Oc3ccc([N+](=O)[O-])cc3Cl)c2)c1 | 32 | 2.6 | -5 | 5.5% | / | -5.2
Cc1cc(Nc2ccccc2)nc(-c2ccccc2O)n1 | 10 | -0.3 | 2 | 11% | 2 | 1.2
COc1ccc(N2CCN(C(=O)c3ccc(NS(=O)(=O)c4ccc(F)cc4)cc3)CC2)cc1 | -9 | 2.3 | -1 | -0.1% | -6 | -1.1
O=C(CN1C(=O)C2C3C=CC(C3)C2C1=O)Nc1nc(SCc2ccc(Cl)cc2)n[nH]1 (centres undefined) | -7 | -0.5 | -3 | 5.8% | -1 | 5.4
O=C(CN1CCC(C(O)(c2ccccc2)c2ccccc2)CC1)Nc1cc(Cl)ccc1Cl | 48 | 0.3 | 6 | / | 48 | -2.6
c1cnc2c(OCc3cn4cccnc4n3)cccc2c1 | 12 | -0.5 | -2 | 1.0% | -26 | -4.9
CC(C)N1CC2(c3ccccc3)CN(C(C)C)CC(c3ccccc3)(C1)C2=O | -10 | 0.5 | 7 | 1.5% | 0 | 0.0
O=C(c1cnn2c(C(F)F)cc(-c3ccccc3)nc12)N1CCSCC1 | 4 | -0.5 | 0 | -6.0%[38.3 µM] | 12 | 4.0
O=S(NC1CCCCC1)C12CC3CC(CC(C3)C1)C2 (centres undefined) | -5 | 0.3 | -1 | ? | 7 | 0.0
CCN1CCN(S(=O)(=O)c2cccc3nsnc23)CC1 | -9 | 0.8 | 0 | -1.4%[38.3 µM] | -7 | -1.5
Nc1nc(NCC(=O)O)nc(NCc2ccccc2)c1[N+](=O)[O-] | -5 | -0.2 | 8 | 1.6% | 5 | -4.0
CCOC(=O)C1CCN(C(=O)CNS(=O)(=O)c2ccc(Br)s2)CC1 | 11 | 2.0 | 5 | 1.1%[38.3 µM] | 11 | -1.8
Cc1ncc(CN2CCC(C(=O)Nc3cccc(-c4cscn4)c3)CC2)cn1 | -6 | -0.5 | -3 | -0.1% | 1 | -0.6
CCCn1c2ccc(C)cc2c2n[nH]c(=S)nc21 | 12 | 1.8 | -7 | 6.2% | -4 | 3.9
CCCCn1c(N)c(N(CC)C(=O)c2ccco2)c(=O)[nH]c1=O | 13 | -0.5 | -2 | 1.2% | / | -0.1
COc1ccc(OC)c(CN2CCCC(CO)C2)c1 (centres undefined) | 19 | 0.6 | -18 | -4.9%[38.3 µM] | -6 | 0.8
Cc1ccccc1N1CCN(c2ccccc2NC(=O)/C=C\C(=O)O)CC1 | -8 | 3.3 | -1 | -1.6% | 0 | 0.5
O=C(COC(=O)c1ccc2c(c1)OCO2)NC1CCS(=O)(=O)C1 (centres undefined) | -6 | -0.8 | 5 | -1.2% | 8 | 1.0
CC1CC(c2ccccc2)n2nc(N3C(=O)c4ccccc4C3=O)nc2N1 (centres undefined) | -1 | -0.4 | -4 | 3.3% | -2 | 0.8
Cc1ccc(NC(=O)CC(C)CC2=NS(=O)(=O)c3ccccc3N2)cc1 (centres undefined) | -8 | -0.2 | 3 | -0.1% | -3 | -4.6
CC(=O)Nc1ccc(NC(=O)C(C)OC(=O)CCCc2c[nH]c3ccccc23)cc1 (centres undefined) | 34 | 0.7 | -5 | 3.8% | -18 | -1.4
Cc1ccc(-c2n[nH]c(=S)n2/N=C/c2c(C)nn(-c3ccccc3)c2C)cc1 | 2 | 1.1 | 1 | 0.1% | -17 | 1.9
Cn1c(N)c(C(=O)COC(=O)C2CCCCC2)c(=O)n(C)c1=O | 29 | 0.0 | -3 | -0.7%[38.3 µM] | -15 | 1.7
CC(=O)Nc1cccc(OCC(=O)NS(=O)(=O)c2ccc(C)cc2)c1 | 34 | -0.5 | 4 | 3.0%[38.3 µM] | 3 | -2.2
Cn1nc(-c2ccccc2)c(-c2ccccc2)c(C(=O)Nc2ccccc2C(N)=O)c1=O | -5 | 1.5 | / | -0.4% | / | /
O=C(Cn1cc(S(=O)(=O)c2ccccc2)c(=O)c2cc3c(cc21)OCO3)Nc1ccc(Cl)cc1 | -5 | 1.8 | / | 0.2% | / | /
Other results.
SMILES | TRPML1 blocker | TRPML1 agonist | Six1-Eya2 inh | PINK1 modulator | CtBP-E1A blk | D2 ag
Cc1ccccc1CNC(=O)C1CCN(c2nn3cc(-c4ccc(F)cc4)nc3s2)CC1 | 10 | 0.9 | / | -0.5% | / | /
COc1ccccc1-n1c(CCn2nc(C)c(Br)c2C)n[nH]c1=S | -7 | 0.0 | 10 | 3.2% | 7 | -1.0
O=C(COC(=O)c1cccc(S(=O)(=O)N2CCCCC2)c1)NC1CCCc2ccccc21 (centres undefined) | 37 | 2.0 | 4 | 0.1% | -6 | 1.1
CCn1c(SCC(=O)Nc2nccs2)nnc1-c1cc2cccc(OC)c2o1 | -2 | 1.9 | -7 | 0.2% | 0 | -2.9
COc1ccc(Cc2nnc(NC(=O)c3cccc([N+](=O)[O-])c3)s2)cc1 | 10 | 0.7 | -7 | 4.4% | 2 | -2.5
COC(=O)c1cccc2c1C(=O)c1cc([N+](=O)[O-])ccc1-2 | 8 | 0.0 | -1 | 1.0% | -10 | 0.7

A second format for part of the listing above.
SMILES	TRPML1 blocker	TRPML1 agonist	Six1-Eya2 inh	PINK1 modulator	CtBP-E1A blk	D2 ag
COc1ccc(Cc2nnc(NC(=O)c3cccc([N+](=O)[O-])c3)s2)cc1	10	0.7	-7	4.4%	2	-2.5
COc1ccccc1-n1c(CCn2nc(C)c(Br)c2C)n[nH]c1=S	-7	0.0	10	3.2%	7	-1.0
Cc1ccccc1CNC(=O)C1CCN(c2nn3cc(-c4ccc(F)cc4)nc3s2)CC1	10	0.9	/	-0.5%	/	/

Screening data deposited in PubChem by National Center for Advancing Translational Sciences (NCATS).
